Compound activity (PubChem BioAssay)
Bfl-1 A1 inh – caspase 3/7 activation in MEF A1-2A-BIM cells, primary screen, A1 inhibitor project, cell-based, luminescence, HTS; Caspase-Glo 3/7 luminescence, 3 h; percent of clofoctol response, vehicle zero; caspase activation, % (concentration not given with the values); hit rate 0.066% among 330,000;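 active = over half of replicate activation scores above 10%, or exactly half above 10 with the replicate mean above 10; inconclusive = replicate mean below 10 yet half the replicates above 10; inactive = over half of replicates below 10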;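 also: wells of about 30 µL received 50 nL stock; many hits fall short of the cut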
LANA-H2A inh – blockers of LANA interaction with H2A/H2B – biochemical, FP readout, HTS, primary screen; Protein LANA1 (Human herpesvirus 8 type P (isolate GK18)), Q9QR71; cell-free LANA-H2A/H2B peptide, fluorescence polarization; inhibition, % (test concentration not listed); hit rate 0.6% among 320,000; AID 2629, 2010; in the data active = inhibition mostly above about 10%, no sharp cut-off; inactive = mostly below about 6.7%;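 also: stock transfer was 7.5 nL into about 10 µL; 0% = median of vehicle wells and 100% = median of positive control wells; one replicate is shown; the record names a cut of 25% in any replicate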
Target sequence (Q9QR71 whole entry, looked up): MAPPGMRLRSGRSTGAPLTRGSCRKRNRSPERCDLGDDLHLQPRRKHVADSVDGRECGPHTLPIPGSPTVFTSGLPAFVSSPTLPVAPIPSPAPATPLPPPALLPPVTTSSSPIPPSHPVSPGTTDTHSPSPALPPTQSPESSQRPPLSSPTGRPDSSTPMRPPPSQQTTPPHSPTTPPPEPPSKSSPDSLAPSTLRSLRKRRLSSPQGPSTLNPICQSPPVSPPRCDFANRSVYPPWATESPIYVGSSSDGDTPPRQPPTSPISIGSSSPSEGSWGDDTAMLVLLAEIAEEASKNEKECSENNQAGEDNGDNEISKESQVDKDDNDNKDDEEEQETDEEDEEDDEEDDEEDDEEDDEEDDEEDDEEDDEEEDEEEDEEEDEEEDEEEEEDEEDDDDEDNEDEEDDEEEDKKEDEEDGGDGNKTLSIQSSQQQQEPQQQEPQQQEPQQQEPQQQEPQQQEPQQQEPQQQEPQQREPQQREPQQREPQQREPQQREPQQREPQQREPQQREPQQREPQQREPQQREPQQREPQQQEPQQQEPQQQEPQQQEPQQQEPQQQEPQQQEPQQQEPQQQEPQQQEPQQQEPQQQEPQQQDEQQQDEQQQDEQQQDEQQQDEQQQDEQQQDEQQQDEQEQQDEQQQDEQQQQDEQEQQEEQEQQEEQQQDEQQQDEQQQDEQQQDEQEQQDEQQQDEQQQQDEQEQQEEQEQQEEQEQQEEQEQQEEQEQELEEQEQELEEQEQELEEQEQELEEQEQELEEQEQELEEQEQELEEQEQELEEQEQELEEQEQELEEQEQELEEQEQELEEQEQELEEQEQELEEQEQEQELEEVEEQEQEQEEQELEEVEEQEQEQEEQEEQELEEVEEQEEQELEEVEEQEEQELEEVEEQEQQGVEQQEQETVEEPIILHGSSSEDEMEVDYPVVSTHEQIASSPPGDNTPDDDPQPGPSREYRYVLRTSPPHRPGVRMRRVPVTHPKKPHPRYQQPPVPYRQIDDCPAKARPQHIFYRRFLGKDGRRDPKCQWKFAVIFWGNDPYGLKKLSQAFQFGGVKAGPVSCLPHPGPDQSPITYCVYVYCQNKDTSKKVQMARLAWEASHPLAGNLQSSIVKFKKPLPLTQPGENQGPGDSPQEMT
Beta apoptosis – inhibitors of cytokine-induced beta cell apoptosis, primary screen, luminescence. INS-1E cytokine-induced death, ATP luminescence, 48 h; percent of positive-control rescue, neutral wells zero. protection from apoptosis, % (concentration not given with the values). hit rate 0.8% among 300,000. AID 435005, 2010;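 active = all replicates at 75% or more, or half of them and the mean; inconclusive = half reach 75% but not the mean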;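 also: 0% = cytokine-treated negative control wells and 100% = positive control rescue; higher means more ATP so stronger rescue from cytokine killing; wells of about 40 µL received 100 nL stock; the first replicate is given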
T cruzi inh – inhibitors of intracellular T. cruzi growth, primary screen, luminescence, NIH3T3 host cells; T. cruzi beta-gal in NIH3T3, 90 h; inhibition, % (test concentration not listed); hit rate 1.4% among 300,000;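 active = mean inhibition across valid replicates above about 55%, limit read from the data; inconclusive = mean below that limit but half or more replicates reach it; inactive = mean below it, under half of replicates reach it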;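 also: signal also drops with host cell toxicity which is not excluded here; 0% = plate median of DMSO wells and 100% = zero luminescence signal; higher percent means less beta-gal luminescence so fewer parasites; stock transfer was 50 nL into about 50 µL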
MLL AF4-AF9 inh – inhibitors of AF4 peptide binding to AF9, primary screen, biochemical, AlphaScreen, biotin-AF4 peptide, FLAG-AF9, single point | Protein AF-9 (Homo sapiens), P42568 | inhibition, % at 10 µM | hit rate 0.47% among 350,000 | AID 651704, 2012;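 active = every replicate reaching a set inhibition limit, whatever the replicate mean, cut at about 25% in these data; inconclusive = mean inhibition reaches that limit but some replicates miss it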;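 also: 0% = plate neutral control median and 100% = total signal loss; the record names both 10 and 1 µM as test concentration; the first replicate is given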
Vif A3G – inhibitors of Vif binding to APOBEC3G peptide, primary screen, biochemical, TR-FRET, GST-Vif 1-94, biotin-A3G peptide, dose response retest (AID 1117319). TR-FRET GST-Vif / biotin-A3G peptide binding; higher % means a stronger effect; test concentration not given here; strong numbers were not always called active. inhibition, %; hits with a dose series show IC50 in µM. Virion infectivity factor (Human immunodeficiency virus type 1 group M subtype B (isolate …. hit rate 0.57% among 260,000;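 active = above the screen mean plus three standard deviations and confirmed in dose response; inconclusive = results disagree or hit not tested in dose response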;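 also: Vif residues 1-94 fused to GST binding biotinylated APOBEC3G peptide 110-148; 0% = full assay without inhibitor and 100% = GST in place of GST-Vif; retest series ran down from 100 µM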
Calb FLC – C. albicans growth inhibition with fluconazole, primary screen, CaCi-2 strain, Alamar Blue fluorescence; C. albicans CaCi-2 (fluconazole-resistant clinical isolate) + fluconazole, 48 h; AID 1979, 2009; growth inhibition, % (test concentration not listed); hit rate 0.57% among 300,000;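 active = most replicates above 75%; inconclusive = exactly half above 75%; inactive = most below 75%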;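 also: all wells also contain fluconazole at 8 µg/ml as a sub-toxic cotreatment; 0% = median of DMSO wells and 100% = median of geldanamycin control wells; wells of about 8 µL received 7.5 nL stock; the first replicate is given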
RanGTP-Impb inh – inhibitors of RanGTP-importin-beta interaction, primary screen, biochemical, FRET, CFP-Ran, YFP-importin-beta, homogeneous. hit rate 1.1% among 300,000. Ran GTPase (GTP-bound) - importin-beta complex. cell-free CFP-Ran/YFP-importin-beta FRET ratio. inhibition, % (concentration not given with the values). AID 2216, 2009;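 active = most replicates above 15%; inconclusive = exactly half above 15%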;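 also: 0% = DMSO wells and 100% = Ran loaded with GDP instead of GTP; wells of about 40 µL received 100 nL stock; the first replicate is given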
* marks the source's active call; other numbers are inactive results; ? = inconclusive; nt = not tested or not shown; & = joins results of further samples.

SMILES	Bfl-1 A1 inh	LANA-H2A inh	Beta apoptosis	T cruzi inh	MLL AF4-AF9 inh	Vif A3G	Calb FLC	RanGTP-Impb inh
c1ccc(COCC2CCNCC2)cc1	0.4	0.5	2	-4	1.2	-7%	-1	0.7
CCOC(=O)C(=O)N/N=C/c1ccco1	-0.8	0.0	-7	-9	-2.5	26%	11	?
O=C(COC(=O)/C=C/c1ccc(OC(F)F)cc1)NC(=O)NC1CCCCC1	-1.5	-3.7	-4	nt	0.7	-5%	nt	nt
COc1cc2c(cc1NC(=O)COC(=O)C1CC(=O)N(Cc3ccco3)C1)oc1ccccc12 (stereo not drawn)	0.1	12	6	-5	nt	-2%	10	-0.2
CC(C)(C)OC(=O)NCc1n[nH]c(=S)n1C1CC1	1.1	-4.8	-8	1	1.9	nt	0	?
Cc1ccc2cc(CN(C(=O)c3ccco3)c3ccccc3C)c(=O)[nH]c2c1	0.1	-3.5	0	8	nt	-4%	0	1.5
CCCCn1c(N)c(N(CCOC)C(=O)CCS(=O)(=O)c2ccc(Cl)cc2)c(=O)[nH]c1=O	-0.3	7.8	0	1	-5.6	7%	12	1.3
Cc1ccccc1NC(=O)C1CC(=O)N(c2ccc3c4c(cccc24)CC3)C1 (stereo not drawn)	0.0	-1.9	-3	-3	nt	2%	-1	-4.0
COc1ccc(C2NC(=S)NC3=C2N2CCC3CC2)cc1 (stereo not drawn)	-0.4	0.5	3	-19	-1.2	nt	10	0.3
FC(F)(F)c1cc(-c2cccs2)nc2ncnn12	0.4	3.5	1	-7	-0.8	-1%	-10	5.7
Cc1ccc(C)c(N2CC(C(=O)Nc3cc(C)on3)CC2=O)c1 (stereo not drawn)	0.3	-0.2	nt	-27	0.6	0%	-4	7.5
O=C(CNC(=O)C1CCCCC1)Nc1ccc(F)c(Cl)c1	0.0	0.6	-1	-2	-3.5	?	-60	?
COc1cccc(CN2CC(C(=O)N(C)Cc3ccnc4ccccc34)CCC2=O)c1 (stereo not drawn)	0.4	1.0	0	-12	-0.1	nt	-5	0.8
c1ccc(CNc2nc3ccccc3n2CCN2CCOCC2)nc1	0.1	-5.6	-7	-8	2.3	2%	-1	-1.9
Cc1ccc(S(=O)(=O)CCC(=O)OCC(=O)NCc2ccccc2)cc1	0.2	0.0	-5	0	-0.4	-4%	-9	-0.2
OCCC1CN(Cc2cnc(N3CCCC3)s2)CCN1C1CCCC1 (stereo not drawn)	-0.1	0.9	1	7	-1.5	?	5	2.8
COC(=O)[C@@H]1C[C@@]2(O)[C@H](O)[C@H](O)[C@H](O)C[C@H]2N1Cc1cc(OC)cc(OC)c1	0.1	-0.3	2	-18	-1.4	nt	-7	-1.4
CN1C(C)(C)CCCC1(C)C	-0.4	2.7	-10	nt	-3.3	nt	nt	nt
CCC[C@H]1COCCS(=O)(=O)N1Cc1ccc(Br)cc1	0.6	0.4	-3	9	nt	nt	23	0.1
Cc1ccccc1-n1c(=O)c(C#N)cc2c(=O)n3ccccc3nc21	0.9	-0.8	nt	-17	nt	2%	54*	128*
Cc1ccc(C(=O)OCC(=O)NCc2ccc3c(c2)OCO3)s1	0.3	-3.6	-1	-6	nt	-3%	-1	-4.9
N#C/C(=C\C1CC2C=CC1C2)c1nc2ccccc2[nH]1 (stereo not drawn)	0.3	1.6	9	-14	nt	31%	-17	-3.2
COc1cccc(/C(O)=C2/C(=O)C(=O)N(c3cc(C)on3)C2c2cccs2)c1 (stereo not drawn)	1.5	-1.7	-1	-4	nt	6%	-4	1.2
CC(=O)c1cccc(NC(=O)COC(=O)c2cccs2)c1	0.9	0.5	-7	-2	-2.6	2%	-11	0.5
COC(=O)N/N=C/c1cccc([N+](=O)[O-])c1	0.5	2.7	-11	-3	1.5	-8%	-3	0.4
SMILES	Bfl-1 A1 inh	LANA-H2A inh	Beta apoptosis	T cruzi inh	MLL AF4-AF9 inh	Vif A3G	Calb FLC	RanGTP-Impb inh
C=C(C)COc1ccc(-c2[nH]ncc2-c2ccc(OC)c(OC)c2)c(O)c1	0.0	-2.0	24	-1	nt	1%&3%	-7	0.5
O=C(NCCS(=O)(=O)N1CCN(Cc2ccccc2)CC1)c1ccccc1	0.3	-1.8	1	-1	-13	-4%	3	0.1
Cc1ccnc(NC(=O)C2CCN(S(=O)(=O)c3c(C)c(C)cc(C)c3C)CC2)c1	0.9	0.3	49	-5	2.3	-2%	-4	4.7
N/C(Cn1nnc(-c2ccccc2)n1)=N\O	1.0	4.6	nt	2	nt	7%	9	nt
O=C(NCCSCc1ccco1)Nc1cccc(Cl)c1	-2.2	-0.7	-1	1	nt	-6%	-8	7.2
Cc1[nH]c2ccccc2c1C(=O)C(=O)NC1CC1	0.0	-4.1	12	-15	-1.6	nt	-1	6.0
CCOC(=O)N1CCC(c2nc3ccccc3[nH]2)CC1	1.6	14	2	-4	nt	-7%	19	2.4
Cc1cccc(OCCCC(=O)NC(C)c2ccccc2)c1 (stereo not drawn)	-0.5	2.9	-2	17	nt	70%	-6	4.8
NC(=O)c1nn(-c2ccccc2)nc1N	-1.4	-1.2	-2	-1	nt	-2%	2	8.3
CCCC(C)NC(=O)/C=C/c1cccc([N+](=O)[O-])c1 (stereo not drawn)	0.7	3.3	-6	2	nt	2%	9	26
CCC(Sc1nc2cc(OC)c(OC)cc2c(=O)n1CCc1ccc(S(N)(=O)=O)cc1)C(=O)NCCOC (stereo not drawn)	-0.3	-5.4	7	7	-1.7	-1%	-5	9.2
O=C(CN1CCOCC1)Nc1ccccc1NC(=O)C1CCN(c2ncccn2)CC1	-0.5	-0.4	0	-5	nt	-2%	-10	-0.8
C/C(CC(=O)Nc1cccc(C(F)(F)F)c1)=N\NC(=O)c1cnccn1	0.9	-4.9	-3	2	0.2	nt	-6	1.3
NS(=O)(=O)c1ccc(CCNC(=O)c2ccc(Cl)nc2)cc1	0.7	-0.3	-6	-5	-5.3	-5%	-5	2.3
O=C(CCn1c2c(c3ccccc31)CCCC2)NNC(=O)c1ccccc1Cl	0.2	-2.1	-7	3	nt	nt	7	-2.6
COC(=O)[C@H](C)NC(=O)Nc1ccccc1C(F)(F)F	-0.8	-3.8	-1	3	nt	9%	5	-20
Cc1noc(NS(=O)(=O)c2ccc(N/C=C\C(=O)c3cccc4ccccc34)cc2)c1C	-0.1	-1.2	1	-7	2.4	1%	-8	-4.1
CC(C)(C)S(=O)(=O)c1ccc(S(=O)(=O)C(C)(C)C)s1	0.3	-0.9	nt	-14	nt	-5%	-5	-0.8
Cc1cccc(C)c1NC(=O)Nc1ccc2c(c1)OCO2	1.1	-1.5	-1	4	-11	3%	-2	3.8
O=C(Nc1nccs1)c1cc(-c2ccncc2)nc2ccccc12	-1.0	3.7	-1	21	4.3	11%	-4	-2.2
Cc1cccc(-n2cnc3sc(C)c(C)c3c2=O)c1	0.7	-1.2	-5	-8	-2.8	-10%	-5	3.1
CCc1cccc(NC(=O)NC(=O)Cn2nnc(C(=O)OC)c2C(=O)OC)c1	0.3	0.6	0	4	5.3	-7%	4	-2.1
CCN=C(NCC)SC1CC(=O)N(c2cccc(OCC)c2)C1=O (stereo not drawn)	-0.3	2.6	0	6	nt	17%	-1	1.8
COc1ccc(NC(=O)C2CC(=O)N(Cc3ccc(C)cc3)C2)cc1S(=O)(=O)N1CCCCC1 (stereo not drawn)	-0.4	-2.5	-11	-1	nt	nt	-2	3.5
O=C(NCc1ccccc1Cl)C1CCC(=O)N(CCCN2CCCC2=O)C1 (stereo not drawn)	0.8	2.7	-5	-11	-0.8	2%	-7	5.2
SMILES	Bfl-1 A1 inh	LANA-H2A inh	Beta apoptosis	T cruzi inh	MLL AF4-AF9 inh	Vif A3G	Calb FLC	RanGTP-Impb inh
CCCCSc1n[nH]c(N)n1	0.3	3.6	-3	-26	-3.3	28%	-2	6.2
Cc1nc(-c2ccc(Cl)cc2)sc1C1(C)CC(c2ccncc2)=NO1 (stereo not drawn)	-0.4	3.0	5	37	nt	nt	7	-0.5
CC1(NC(=O)c2cc(-c3cccs3)nn2-c2ccccc2)CCS(=O)(=O)C1 (stereo not drawn)	0.1	-1.4	-4	0	-5.9	-6%	0	-0.2
CN(C)CCCNC(=O)C(=O)NCC(c1cccs1)S(=O)(=O)c1ccc(F)cc1 (stereo not drawn)	1.2	11	nt	18	0.7	2%	-12	-1.7
COc1ccc(N(CC(=O)Nc2ccc(F)c(Cl)c2)S(=O)(=O)c2c(C)noc2C)cc1	0.0	-3.8	7	9	nt	4%	?	5.3
CC1=NN(C(=O)Cc2ccccc2)C(O)(c2ccccc2)C1 (stereo not drawn)	0.4	2.6	1	-3	-3.5	-1%	3	-0.9
O=C(CCl)c1cc2c3c(c1)CC(=O)N3CCC2	-0.7	-3.6	nt	-8	0.3	nt	1	-3.8
Cc1noc(C)c1S(=O)(=O)N(CC(=O)NCc1ccc2c(c1)OCO2)c1ccc(C(C)C)cc1	0.3	0.3	7	17	5.8	?	0	-3.9
COc1ccccc1NC(=O)N1CCCC1C(=O)Nc1ccc(NC(C)=O)cc1 (stereo not drawn)	0.7	-5.0	-2	2	nt	?	7	-5.6
C=CCC[C@H](Cc1ccc(F)cc1)C(=O)OC[C@@H](Cc1c[nH]c2ccccc12)NC(=O)[C@H](CC=C)CC(=O)N[C@H](CO)Cc1ccccc1	0.4	145*	-2	nt	-3.1	1%	nt	nt
CCOC(=O)c1c(C)c(C(=O)NCCCOC)c(C)n1C	0.4	-1.6	-1	-7	nt	28%	-2	?
O=C(NNc1ccccc1Cl)C(O)(c1cccc(C(F)(F)F)c1)c1cccc(C(F)(F)F)c1	1.0	-3.9	21	46	-9.8	nt	0	-0.7
Cc1ccc(NC(=O)CSc2nnc(-c3ccncc3)n2C)cc1S(=O)(=O)N1CCOCC1	-0.3	-1.6	-5	15	-2.9	-3%	8	3.0
CN(C)C1=NC[C@H](Cc2ccccc2)N1CCCCc1ccccc1	-0.6	1.6	10	nt	-1.1	nt	nt	nt
CC1CCN(c2ncccc2C(=O)O)CC1	0.2	2.5	-5	-11	-36	23%	0	1.4
CCOC(=O)CNC(=O)CNC(=O)c1ccc(OC(C)C)cc1	0.0	1.1	-5	-14	0.2	0%	1	5.0
Cc1cc(C)c(N(CC(=O)NC(C)(C)C)C(=O)CNC(=O)c2cccs2)c(C)c1	1.2	-11	-1	-15	-0.8	nt	2	0.3
CCOC(=O)Cn1c(=S)[nH]c2c(oc3ccc(Cl)cc32)c1=O	0.9	3.3	-15	-3	nt	-14%	-4	-4.9
Cn1ccs/c1=N\S(=O)(=O)c1ccc(Br)cc1	3.1	2.0	nt	2	nt	3%	-12	1.4
C=CCNC(=S)NNC(=O)C(CCC(C)C)CC(C)O (stereo not drawn)	0.0	-7.0	0	-17	nt	-3%	13	4.5
CC(C)(C)C(=O)Nc1ccc(NC(=O)c2ccco2)nc1	-1.4	-4.7	2	-2	-4.3	nt	11	3.5

Rows were taken by chance; 4.3% or so of the library scored in one or more.
